UUG fidelity: alters start codon recognition fidelity in yeast; S. cerevisiae UUG-firefly luciferase reporter, luminescence/redox ratio; activity score, % at 18.7 µM; hit rate 0.13% among 350,000; AID 602363;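 active means replicate mean at a twofold rise or more, about +100% in these data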;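 further: firefly luciferase made from a UUG start codon reports start codon fidelity; reporter light over untreated wells divided by growth signal over untreated wells; some hits fall short of that in this replicate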
MT1-MMP act inh: blocks activation of human MT1-MMP. P50281. HT1080 RFP-PRO-GFP cells, GFP/RFP ratio fluorescence, overnight; percent of plate control window, DMSO zero. GFP/RFP ratio change, % at 20 µM. AID 651647. hit rate 0.061% among 360,000;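 active means GFP/RFP ratio change of at least 30% with cell ATP level not reduced by more than half and red fluorescence within 50% of control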; further: strong numbers were not always called active
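Assay system: HT1080 RFP-PRO-GFP cells. Benchmarks: DMSO vehicle wells and RFP-L50D-GFP reporter cell wells. Times: overnight cell settling, then overnight compound exposure, 37 °C, 5% CO2. Compound: 20 µM single dose, 1% DMSO. Read-out basis: GFP/RFP fluorescence ratio.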
CSC inhib: blocks cancer stem cells; cancer stem cell-like cells viability, luminescence; inhibition, % at 7.5 µM; hit rate 1.1% among 300,000;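 active means mean at 75% or more and at least half the replicates too; inconclusive means mean and replicates disagree; tested in HMLE shEcad cells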;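 further: 0% = median of negative and 100% = median of positive control wells; the first replicate is given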
Env fusion inh: inhibitors of HIV Env-mediated cell fusion | HeLa-JRFL Env/CEM21 cell fusion, luciferase | inhibition, % at 12.3 µM | hit rate 1.1% among 360,000 | AID 651610;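 active means mean replicate inhibition score of at least 50 and every replicate individually at or above 50; inconclusive means only one of the two criteria met; inactive means mean below 50 and not all replicates reaching 50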;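 further: 0% = plate neutral controls and 100% = maraviroc near 300 nM; one replicate is shown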
eIF4H FP inh: inhibitors of RNA binding by human eIF4H; Q15056; eIF4H fluorescence polarization binding assay; inhibition, % at 35 µM; hit rate 0.94% among 290,000;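 active means 50% or more with normal probe brightness, or confirmed in later tests; inconclusive means above 50% with abnormal brightness, or retests that disagree; inactive means below 50% or failed in later tests; about a fifth of its hits are not listed in these tables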;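 further: calls also rest on retests at 20 µM and on dose response follow-up; 0% = protein and probe with vehicle and 100% = probe without protein; strong numbers were not always called active; many hits fall short of the cut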
Rce1 inh: blocks yeast Ras-converting enzyme | Q03530 | hit rate 0.27% among 290,000 | calls only | yeast membranes, quenched prenylated peptide cleavage fluorescence;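 active means fall in fluorescence gain of 50% or more versus controls, with final raw signal at or below 3038400; inconclusive means same 50% fall but final raw signal above 3038400; inactive means fall in fluorescence gain under 50%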;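 further: plate controls were neutral control wells for no effect and wells lacking membranes for full effect; tested at 10 µM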
PABP FP inh: PABP-poly(A) binding inhibition; P11940; PABP-poly(A) RNA binding, fluorescence polarization; inhibition, % at 35 µM; hit rate 1% among 290,000;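 active means 50% or more with normal probe brightness, or confirmed in later tests; inconclusive means above 50% with abnormal brightness, or retests that disagree; inactive means below 50% or failed in later tests; about a fifth of its hits are not listed in these tables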;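 further: calls also rest on retests at 20 µM and on dose response follow-up; controls were probe without protein and protein plus probe with vehicle; some compounds called inactive have numbers as strong as hits; many hits fall short of the cut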
Target sequence (P11940 whole entry, looked up): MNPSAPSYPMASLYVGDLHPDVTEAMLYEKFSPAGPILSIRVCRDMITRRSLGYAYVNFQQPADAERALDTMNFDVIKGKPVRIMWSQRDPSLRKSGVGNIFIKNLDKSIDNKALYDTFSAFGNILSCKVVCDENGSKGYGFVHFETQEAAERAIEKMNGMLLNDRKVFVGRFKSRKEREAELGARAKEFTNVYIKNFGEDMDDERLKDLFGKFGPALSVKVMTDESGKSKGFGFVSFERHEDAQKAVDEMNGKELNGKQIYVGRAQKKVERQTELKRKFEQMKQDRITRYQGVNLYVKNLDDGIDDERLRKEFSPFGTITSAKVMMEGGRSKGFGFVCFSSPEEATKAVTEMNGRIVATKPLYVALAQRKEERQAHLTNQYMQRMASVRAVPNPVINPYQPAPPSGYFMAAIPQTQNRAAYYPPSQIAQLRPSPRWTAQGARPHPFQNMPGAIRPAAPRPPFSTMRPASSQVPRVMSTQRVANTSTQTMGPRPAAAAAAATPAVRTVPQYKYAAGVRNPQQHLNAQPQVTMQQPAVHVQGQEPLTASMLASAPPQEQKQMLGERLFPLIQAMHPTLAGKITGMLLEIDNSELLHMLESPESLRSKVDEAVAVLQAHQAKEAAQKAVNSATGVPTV
eIF4H FP inh retest: second read-out of eIF4H FP inh, no call of its own (marks repeat the call); inhibition, %; compound at 20 µM; confirmation average;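 mean of two retest wells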
PABP FP inh retest: recorded beside PABP FP inh, whose call it bears; inhibition, %; compound at 20 µM; confirmation repeats;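 mean of two retest wells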
MT1-MMP act inh RFP: further read-out of MT1-MMP act inh, marked with its call; RFP signal change, %; measured here: RFP expression control read;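 0 = vehicle wells; hits needed this value within 50% of zero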
* = called active by the depositor; i = inactive; ? = inconclusive; . = no result given; & = joins results of further samples; [ ] = remark or other dose. Outcome played no part in choosing rows. Share with any hit: about 2.9%.

SMILES	UUG fidelity	MT1-MMP act inh	MT1-MMP act inh RFP	CSC inhib	Env fusion inh	eIF4H FP inh	Rce1 inh	PABP FP inh	others
COc1cc(C(O)c2nc(-c3cccc(C(=O)O)c3)cs2)ccc1F (centres undefined)	-1	3	10	.	-8	.	.	.
CC(C)CC(=O)NC1(C(F)(F)F)C(=O)Nc2c1c(=O)n(C)c(=O)n2C (centres undefined)	-8	-1	4	-1	.	0	i	-1
C#CCN(C[C@H]1[C@H](OC(=O)NCc2ccccc2F)[C@H](OC(=O)NCc2ccccc2F)C[C@H]2C(=O)N(c3ccccc3)C(=O)[C@@H]12)S(=O)(=O)c1ccc(C)cc1	-16	-1	-1	.	-2	.	.	.
COc1ccc(NC(=O)C2CCCN2C(=O)NCc2ccccc2)cc1 (centres undefined)	.	-4	3	-14	-4	-6	i	42
COc1ccc(C2C(=O)N(C3CCCCC3)CC(=O)N2CC2COc3ccccc3O2)cc1 (centres undefined)	22	-8	-8	-3	5	-8	.	-3
Fc1cccc2sc(Nc3nc4c(F)cccc4s3)nc12	.	-5	-9	-2	-77	7	i	-1
Cc1c(C(=O)NCC2CCCO2)oc2ccc(S(=O)(=O)N3CCCCC3)cc12 (centres undefined)	-11	0	0	2	5	0	i	13
COC(=O)c1sc(NC(=O)c2ccco2)c(C#N)c1C	-18	4	-5	.	-16	-7	i	-5
c1ccc(Nc2scc(-c3ccccc3)[n+]2Cc2ccco2)cc1	.	-8	-7	9	-89	4	i	-4
NC(=O)C1CCN(Cc2nc3c(Br)cc(Br)cc3c(=O)[nH]2)CC1	.	-7	1	-3	7	0	i	11
O=C(NC1CCCc2ccccc21)C(Cc1ccccc1)NS(=O)(=O)c1cccs1 (centres undefined)	-2	-9	-3	8	21	15	i	38
CCC1(c2ccc(F)cc2)NC(=O)N(CC(=O)Nc2cccc(S(=O)(=O)N3CCCCC3)c2)C1=O (centres undefined)	-18	14	-8	-7	12	.	i	.
Cc1nc2nc[nH]n2c(=O)c1CCOC(=O)c1ccccc1F	.	1	2	-5	-2	-5	i	3
CC(/C=C1\N=C(SCc2ccccc2Cl)SC1=O)=C\c1ccccc1	-10	-7	-3	13	-28	0	i	-2
COc1ccccc1NC(=O)CC(=O)Nc1ccccc1OC	-3	-7	0	11	17	-2	i	3
CCN(CC(=O)NCc1ccc(Cl)cc1)C(=O)CSc1ccccc1F	-11	-9	-6	-7	-67	.	i	.
COc1ccc2oc(=O)c(C(=O)NCc3ccc4c(c3)OCO4)cc2c1	-21	-1	6	3	.	-5	i	10
CCCS(=O)(=O)N1CCCC(c2nc(-c3cccc(OC)c3)no2)C1 (centres undefined)	6	-3	-4	-5	.	-6	i	2
CN(C(=S)NC(=O)c1ccc(Br)o1)c1ccccc1	-21	-1	3	-3	7	12	i	-2
COc1ccc(NC(=O)C(C)N2c3cccc4cccc(c34)S2(=O)=O)c(OC)c1 (centres undefined)	-4	3	0	-3	-2	0	i	-2
COc1ccc(NC(=O)Nc2ccc3nc(C)c(C)nc3c2)cc1	-9	-10	-3	-7	-100	0	i	0
CCCCCCNc1cc2n(c(=O)n1)CCc1cc(OC)c(OC)cc1-2	.	3	-1	0	0	-8	.	23
Cn1cnc(S(=O)(=O)N2CCN(c3cccc(Cl)c3)CC2)c1	-3	-6	-2	5	-5	18	i	10
Cc1ccc(Nc2nc(C(=O)N3CCC(C(=O)NCc4ccccc4)CC3)cs2)cc1	-20	1	-5	-13	-4	-9	i	0
COCc1cc(C)nc(OCC(=O)N/N=C\c2cc(C)n(-c3cccc(C(F)(F)F)c3)c2C)c1C#N	-12	-1	-1	-4	.	-11	i	-2
SMILES	UUG fidelity	MT1-MMP act inh	MT1-MMP act inh RFP	CSC inhib	Env fusion inh	eIF4H FP inh	Rce1 inh	PABP FP inh	others
O=C(N/N=C/c1ccc([N+](=O)[O-])o1)c1cn(-c2ccccc2)nc1-c1ccccc1	.	1	0	6	28	61	i	-3	eIF4H FP inh retest=2;PABP FP inh retest=-1
CCCCNC(=O)c1cc2cc(OC)ccc2[nH]1	-14	1	-7	0	-10	1	i	5
C/C(=N\NS(=O)(=O)c1ccccc1)c1ccc2c(c1)OCCO2	-7	-1	2	-7	-24	-2	i	-1
CN(C)S(=O)(=O)c1ccc(NC(=O)CN2CCCCCC2)cc1	-15	0	4	.	-4	-1	i	2
O=C(Cc1ccccc1)NC(NC(=O)Cc1ccccc1)c1cccc([N+](=O)[O-])c1	.	1	-1	-8	18	6	i	-1
CC(C)CCNC(=O)C1CCN(C(=O)N(C)C)CC1	-16	-6	1	3	.	8	i	2
Cc1ccc(NC2=C(Cl)C(=O)OC2OC(=O)c2ccco2)cc1 (centres undefined)	-28	23	1	4	.	-5	i	-14
C/C(=N\OCc1nc2ccccc2c(=O)n1/N=C/c1cc([N+](=O)[O-])ccc1O)c1ccccc1	.	0	-2	?	18	21	i	25
O=C(O)C1CC(=O)N(Cc2ccc3c(c2)OCO3)C1 (centres undefined)	-23	-1	1	-3	.	-9	i	-2
Cn1nnnc1SCC(=O)C(C)(C)C	0	-1	4	2	14	8	i	1
CCc1ccc(NC(=O)CCCN2C(=O)C3CC=CCC3C2=O)cc1 (centres undefined)	9	1	4	1	i	-15	i	-9
CC1CCCCN1CCCNC(=O)c1cc(Br)c(Br)[nH]1 (centres undefined)	.	3	2	-12	-4	-4	i	-9
Cc1ccc(-c2nnn(CC(=O)N(Cc3ccco3)C(C(=O)NC3CCCC3)c3cccs3)n2)o1 (centres undefined)	-18	-9	-3	.	-19	0	i	4
COc1ccc(C(C)=O)cc1Cn1c(C)c(C(=O)NCc2ccc(C(C)C)cc2)sc1=O	-5	-9	-12	.	3	.	.	.
COCc1cc(=O)[nH]c(Nc2nc(C)c3ccccc3n2)n1	.	0	-3	9	-75	-8	i	25
Cc1noc(C)c1NC(=O)N(C)C[C@H]1OCc2cnnn2CCCC(=O)N([C@H](C)CO)C[C@@H]1C	-5&-3	3	3	.	-17[16.7 µM]	.	.	.
CC1=CC2=NC(=O)/C(=C\c3cccn3CCOc3ccc(C)c(C)c3)C(=N)N2O1	-11	-12	-7	-18	-14	-9	i	-7
Cc1ccccc1Nc1nc(N)nc(CSc2n[nH]c(N)n2)n1	.	7	8	-10	-16	0	i	6
COc1ccc2c(c1)cc(C(=O)N[C@H](C(=O)N1CCC(C(=O)O)CC1)C(C)C)n2C	4	1	2	9	-10	-6	i	1
CCn1cc([N+](=O)[O-])c(C(=O)N2N=C(c3ccc4ccccc4c3)CC2c2cc(Br)ccc2O)n1 (centres undefined)	-17	-77	-44	-3	.	-5	i	-5
Cc1ccc(C(=O)NCC(=O)N2CCC3(CC2)NCCc2[nH]cnc23)cc1C	-11	1	3	-7	-2	.	i	.
Cc1nc2ccccc2c(=O)n1NC(=O)C1CCCCC1	-14	6	1	-13	-39	-4	i	-3
COc1ccc(/C=N/n2cnnc2)cc1Cn1nc(C)c([N+](=O)[O-])c1C	.	0	-1	-6	7	-3	i	0
COc1ccc(C(=O)N(Cc2ccccc2)Cc2cc3cc4c(cc3[nH]c2=O)OCCO4)cc1	-11	-15	-11	6	59*	1	i	4
Cc1ccc(NC(=O)COC(=O)C2C3CC4OC(=O)C2C4C3)cc1 (centres undefined)	-16	3	6	.	9	0	i	-2
SMILES	UUG fidelity	MT1-MMP act inh	MT1-MMP act inh RFP	CSC inhib	Env fusion inh	eIF4H FP inh	Rce1 inh	PABP FP inh	others
CCOC(=O)c1sc(NC(C)=O)cc1C	13	6	2	3	-30	3	i	3
CCC(=O)N(Cc1cc2cc(OC)ccc2[nH]c1=O)c1ccc(C)cc1C	3	0	-2	-14	-113	8	i	-5
N#CC(C(=O)OCc1ccccc1)c1nc2ccccc2nc1N1CCOCC1 (centres undefined)	-5	-9	-4	16	6	10	i	21
COc1ccc(NC(=O)CN(C)CC(=O)Nc2ccccc2SC)cc1Cl	.	5	3	.	16	2	i	50
COc1ccc(-n2c(C)nc3cc(C(=O)NCc4ccc5c(c4)OCO5)ccc32)cc1	-9	1	4	-10	-18	-2	i	3
CCSc1nnc(NC(=O)CSc2nnc(CNC(=O)c3ccccc3F)o2)s1	-32	3	2	3	26	-6	i	35
Cc1ccc(-c2noc(CCC(=O)NC3CCN(Cc4ccccc4)CC3)n2)cc1	-16	2	-5	.	.	0	.	-8
CCOC(=O)C1=CCN(S(=O)(=O)c2ccc(C)cc2)C1c1cccc(Cl)c1 (centres undefined)	-2	2	-5	.	1	.	.	.
CCOC(=O)N1CCN(C(=O)COc2cccc3c2CCN(Cc2ccccc2F)C3=O)CC1	.	-3	-2	20	29	9	i	-4
COc1ccccc1NC(=O)CCc1nnc2ccc(N3CCN(C)CC3)nn12	-17	-8	-3	-2	2	.	i	.
CCN(CC)C(=O)CSc1nnc(-c2ccccc2)o1	-1	1	2	6	-20	-10	i	-8
CCN(CC)CC(O)CCCCCCCCC(=O)OC (centres undefined)	-4	-4	-2	33	-6	14	i	15
COc1cc2ccccc2cc1C(=O)O	-13	2	2	-5	-48	-5	i	4
C/C=C(/C(=C/C)c1ccc(O)cc1)c1ccc(O)cc1	6	-4	-1	63	-22	1	i	1
Cc1cc(C)c2nc(C(F)(F)F)c(C#N)c(N)c2c1	-32	-10	-10	-2	10	-4	i	-8
